High-throughput results as filed in PubChem.
ALR H2O2 inh = inhibitors of human ALR sulfhydryl oxidase, primary screen, biochemical, H2O2 detection, HRP-luminol luminescence, single point | FAD-linked sulfhydryl oxidase ALR (Homo sapiens), P55789 | purified ALR, DTT oxidation | actives 3.8% (n = 290,000) | inhibition, % (no concentration beside the values);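 active = mean and each replicate at 75% or more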;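 also: stock transfer was 7.5 nL into about 7.5 µL; 0% = neutral wells and 100% = wells with inactivated enzyme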
Target sequence (P55789 whole entry, looked up): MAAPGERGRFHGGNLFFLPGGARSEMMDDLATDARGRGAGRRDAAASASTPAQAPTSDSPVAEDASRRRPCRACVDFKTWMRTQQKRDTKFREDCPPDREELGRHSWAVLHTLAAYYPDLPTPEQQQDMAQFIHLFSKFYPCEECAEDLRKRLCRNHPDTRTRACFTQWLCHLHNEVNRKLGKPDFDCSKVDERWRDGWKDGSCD
FGF22 binding = binders of human FGF22 protein, primary screen, FGF22 synaptogenesis inhibitor project, biophysical, thermal shift, single point | Fibroblast growth factor 22 (Homo sapiens), Q9HCT0 | recombinant FGF22 thermal shift, SYPRO orange fluorescence; percent of sucrose octasulfate shift, DMSO zero | calls only at 9.99 µM | actives 1.5% (n = 340,000);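 active = melting point raised past a set limit in the mean and every replicate; three in four hits are not shown here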
Target sequence (Q9HCT0 whole entry, looked up): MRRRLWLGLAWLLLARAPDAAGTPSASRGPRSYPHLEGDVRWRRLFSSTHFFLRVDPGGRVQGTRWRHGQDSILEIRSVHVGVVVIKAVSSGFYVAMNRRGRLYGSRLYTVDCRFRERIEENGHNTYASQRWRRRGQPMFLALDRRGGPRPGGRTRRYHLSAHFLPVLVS
Ecoli rRNA inh = reduced GFP signal of wild-type E. coli, primary screen, bacterial rRNA inhibitor project, GFP/RFP fluorescence, OD600, single point | AID 720706, 2013 | actives 1.6% (n = 350,000) | E. coli WT GFP vs humanized-ribosome RFP mutants, 24 h; active compounds read low; DMSO median 0, no signal -100 | GFP signal change (wild-type ribosome), % (concentration not given with the values);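 active = significant combined selectivity score with lowered wild-type GFP, culture density cut under 30%, mutant RFP and density less affected; inactive = any of these conditions unmet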; also: one replicate is shown; some compounds called inactive have numbers as strong as hits
Vif A3G = inhibitors of Vif binding to APOBEC3G peptide, primary screen, biochemical, TR-FRET, GST-Vif 1-94, biotin-A3G peptide, dose response retest (AID 1117319); Virion infectivity factor (Human immunodeficiency virus type 1 group M subtype B (isolate …; actives 0.57% (n = 260,000); TR-FRET GST-Vif / biotin-A3G peptide binding; higher % means a stronger effect; test concentration not given here; strong numbers were not always called active; one-dose inhibition, %; IC50 in µM for titrated hits;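 active = above the screen mean plus three standard deviations and confirmed in dose response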;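 also: Vif residues 1-94 fused to GST binding biotinylated APOBEC3G peptide 110-148; 0% = full assay without inhibitor and 100% = GST in place of GST-Vif; retest series ran down from 100 µM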
AF4-AF9 inh = inhibitors of AF4 peptide binding to AF9, primary screen, biochemical, AlphaScreen, biotin-AF4 peptide, FLAG-AF9, single point. inhibition, % at 10 µM. actives 0.47% (n = 350,000). AID 651704, 2012;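 active = every replicate reaching a set inhibition limit, whatever the replicate mean, cut at about 25% in these data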;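 also: 0% = plate neutral control median and 100% = total signal loss; the record names both 10 and 1 µM as test concentration; the first replicate is given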
E coli growth = E. coli growth inhibition, primary screen, OD600; Escherichia coli growth, 23 h; active compounds read low; OD600 absorbance (test concentration not listed); actives 0.21% (n = 330,000); AID 1053175, 2014;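 active = OD600 absorbance below the run mean of sample wells minus 3.6 SD, in any replicate, cut at about 0.56 in these data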;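 also: stock transfer was 300 nL into about 60 µL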
HNF4A DNA FP = change in binding of human HNF4A to DNA, primary screen, biochemical, fluorescence polarization, FITC-DNA. actives 0.3% (n = 360,000). AID 1224865, 2016. activity change, % at 10 µM. 1 h. Hepatocyte nuclear factor 4-alpha (Homo sapiens), P41235; in the data active = activity change above about 30%, passing the limit was not always enough;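 also: controls were the assay level and a saturating level of protein; the project sought stronger binding though the title names inhibitors; some compounds called inactive have numbers as strong as hits; positive values seem to mean higher polarization but the record does not say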
Target sequence (P41235 whole entry, looked up): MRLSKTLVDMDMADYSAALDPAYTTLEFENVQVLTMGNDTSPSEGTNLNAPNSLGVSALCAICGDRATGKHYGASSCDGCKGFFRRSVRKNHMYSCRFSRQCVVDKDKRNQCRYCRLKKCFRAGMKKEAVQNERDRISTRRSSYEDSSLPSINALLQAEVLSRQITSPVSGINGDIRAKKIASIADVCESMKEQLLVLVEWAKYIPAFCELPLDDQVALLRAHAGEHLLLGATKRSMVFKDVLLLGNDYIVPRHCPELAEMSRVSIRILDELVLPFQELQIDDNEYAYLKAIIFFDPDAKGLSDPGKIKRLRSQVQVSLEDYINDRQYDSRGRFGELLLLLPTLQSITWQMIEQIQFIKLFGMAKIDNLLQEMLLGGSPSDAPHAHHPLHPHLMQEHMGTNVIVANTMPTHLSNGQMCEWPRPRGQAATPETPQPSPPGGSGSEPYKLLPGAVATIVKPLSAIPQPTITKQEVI
Ecoli rRNA inh OD600 = also measured in Ecoli rRNA inh; calls as there; OD600 change, %; measured here: OD600 growth;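 optical density of the mix in the first replicate; 0 = DMSO median and -100 = no signal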
Ecoli rRNA inh RFP = further read-out of Ecoli rRNA inh, marked with its call; RFP signal change, %; measured here: RFP humanized mutant strains;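 first replicate; 0 = DMSO median and -100 = no signal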
* = called active by the depositor; i = inactive; nt = not tested or not shown; & = joins results of further samples. Not all compounds are listed. The share of hits here may be higher or lower than overall.

Second line of a record: ALR H2O2 inh	FGF22 binding	Ecoli rRNA inh	Ecoli rRNA inh OD600	Ecoli rRNA inh RFP	Vif A3G	AF4-AF9 inh	E coli growth	HNF4A DNA FP
- Cc1c(C(=O)NN)sc(-c2ccccc2)c1C#N
 : -11	i	-1	-15	-1.8	0%	1.1	0.67	3.8
- c1ccc2c(c1)ccc1nnnn12
 : -8	i	4	5	-2.6	nt	nt	0.6	-0.5
- CC1(Cc2ccc(F)cc2)C(=O)Nc2ccc(S(=O)(=O)NC3CCCCC3)cc21 (stereo not drawn)
 : nt	i	-16	-32	-6.0	nt	-5.2	nt	2.4
- COc1ccc(OC)c(CN2CCN(Cc3cccc4ccccc34)CC2)c1
 : -50	i	-56	-76	-39	21%	15	0.67	2.0
- CO[C@H]1CN(C)C(=O)c2ccc(NC(C)=O)cc2OC[C@@H](C)N(C(=O)C2CC2)C[C@@H]1C
 : nt	i	4	6	-3.2	nt	-0.5	nt	nt
- CC(=NCc1ccc2c(c1)OCO2)C1=C(O)c2ccccc2C1=O
 : 2	nt	nt	nt	nt	71%	nt	0.68	0.5
- Cc1ccc(C(=O)NN2C(=O)C3C4C=CC(C4)[C@@H]3C2=O)cc1 (stereo partly drawn)
 : -23	i	6	3	-0.1	-6%	-0.4	0.67	2.3
- OC(CNC1Cc2ccccc2C1)COc1ccc(Cl)cc1 (stereo not drawn)
 : -6	i	-3	-4	1.5	16%	-1.6	0.66	3.2
- COc1ccc(CCNC(=O)CSc2nnc(-c3ccc(F)cc3)c3ccccc23)cc1OC
 : -7	nt	nt	nt	nt	6%	nt	0.67	1.5
- Cc1ccc(NC(=O)C2CC(=O)N(Cc3ccccc3)C2)cc1S(=O)(=O)N1CCCCCC1 (stereo not drawn)
 : nt	nt	nt	nt	nt	7%	nt	0.71	-2.0
- COCCCNCCCCOc1cccc(Br)c1
 : 1	i	15	-3	-0.1	-10%	-17	0.68	0.8
- O=C(NCC[C@@H]1CC[C@@H](NS(=O)(=O)c2ccc(Oc3ccccc3)cc2)[C@@H](CO)O1)C1CC1
 : nt	i	-2	-8	-2.4	nt	0.2	nt	nt
- CC[C@H]1c2[nH]c3ccc(C(C)C)cc3c2[C@@H]2CCN3C(=O)CCC[C@H]1[C@H]23
 : nt	i	-36	-70	7.3	nt	4.6	nt	-5.0
- CCOC(=O)Cc1csc(NC(=O)C(NC(=O)C2CCC(C)CC2)C(C)C)n1 (stereo not drawn)
 : -20	i	1	3	2.8	-5%	-26	0.68	0.2
- CCN(CC)CCCNC(=O)C1CCCN(c2nnc(N3CCCC3=O)s2)C1 (stereo not drawn)
 : -13	nt	nt	nt	nt	2%	nt	0.71	8.0
- COc1ccc(C2c3[nH]c4ccccc4c3CCN2C(=O)c2ccccc2C(C)=O)c(F)c1 (stereo not drawn)
 : -3	i	2	6	0.6	nt	2.1	0.65	-3.0
- Cc1ccc(CNS(=O)(=O)c2ccc(Cl)s2)cc1
 : nt	i	nt	nt	nt	-3%	-2.0	nt	1.1
- Oc1ccc(-c2cn3c(n2)SCC3)cc1
 : 65	nt	nt	nt	nt	2%	nt	0.66	5.6
- Cc1csc(NC(=O)C2CCN(S(=O)(=O)c3ccccc3F)CC2)n1
 : 1	i	-7	-10	1.1	10%	0.3	0.72	-1.1
- C[C@H](CO)N1C[C@H](C)[C@H](CN(C)Cc2ccccc2)Oc2ccc(N(C)C)cc2CC1=O
 : nt	i	-2	-4	-2.3	nt	1.9	nt	nt

Additional entries follow:
Second line of a record: ALR H2O2 inh	FGF22 binding	Ecoli rRNA inh	Ecoli rRNA inh OD600	Ecoli rRNA inh RFP	Vif A3G	AF4-AF9 inh	E coli growth	HNF4A DNA FP
- CC(C)C(=O)N1CCC2(CC1)Oc1ccc(F)cc1C(=O)C21CC(c2ccccc2)=NO1 (stereo not drawn)
 : -4	i	-5	-2	1.8	-7%	nt	0.65	1.4
- Cc1noc(C)c1COc1ccc(C(=O)OCC(N)=O)cc1
 : -3	i	6	10	-1.8	-12%	0.7	0.71	-0.5
- FC(F)Sc1nc(-c2ccccc2)c(-c2ccccc2)n1C(F)F
 : -3	nt	nt	nt	nt	nt	nt	0.67	4.5
- CCc1ccc(NC(=O)c2cc(Br)ccc2Br)cc1
 : 0	i	7	9	-1.9	-7%	-3.8	0.69	nt
- C#CCOCCOCCOCCNc1nc(N2CCN(C(=O)[C@H](CCCCN)n3cc(CCCC)nn3)CC2)nc(N2CCN(C(=O)[C@H](CCCCN)n3cc(CCCC)nn3)CC2)n1
 : -14	i	4	-43	48	30%	26*	nt	0.8
- O=C(O)c1ccc(COc2ccc([N+](=O)[O-])cc2Cl)cc1
 : nt	i	-9	-27	2.8	0%	1.5	nt	-1.1
- CC(C)C#Cc1ccc2c(c1)O[C@H](CN(C)C(=O)c1cccc(F)c1)[C@@H](C)CN([C@@H](C)CO)S2(=O)=O
 : nt	i	2	-16	5.1	nt	-7.2	nt	nt
- COc1cccc(C(=O)Nc2c3c(nc4c2CCC4)CCCC3)c1
 : nt	nt	nt	nt	nt	-4%	nt	0.68	-1.2
- CCOc1ccc(C(=O)N(CN2CCCC2=O)c2ccc(C)cc2)cc1
 : -15	nt	nt	nt	nt	0%	nt	0.74	nt
- COc1ccc(C(=O)c2[nH]c(N)c(C(=O)NCCc3c[nH]c4ccccc34)c2-c2ccc(C(F)(F)F)cc2)cc1
 : nt	i	6	5	-1.5	nt	-2.5	nt	2.5
- Cc1noc(C)c1S(=O)(=O)Nc1ccc2c(c1)C(=O)N([C@H](C)CO)C[C@@H](C)[C@@H](CN(C)Cc1ccc3c(c1)OCO3)OCCCC[C@H](C)O2
 : nt	i	0	-13	4.3	nt	8.6	nt	nt
- CCN1CCCC(Sc2nc3c([nH]2)c(=S)n(C)c(=O)n3C)C1 (stereo not drawn)
 : 9	i	12	14	1.0	-2%	-3.4	0.65	-0.3
- COc1ccc(S(=O)(=O)NCCC(C)C)cc1OC
 : -1	nt	nt	nt	nt	-3%	nt	0.66	-3.3
- Cc1ccccc1OCCC(=O)OCC(=O)Nc1ccc(C)c(S(=O)(=O)N2CCCCC2)c1
 : nt	i	16	13	5.5	2%	-19	nt	-0.7
- Cc1ccc(S(=O)(=O)N[C@@H]2CC[C@@H](CCn3cc(-c4ccccc4F)nn3)O[C@@H]2CO)cc1
 : nt	i	1	-3	0.0	nt	-2.6	nt	nt
- O=C(Nc1ccc(Cl)c(Cl)c1)O/N=C/c1ccncc1
 : -12	i	-52	-81	-20	0%	-0.7	nt	2.5
- COc1ccc(NC(=O)CSc2nnc(-c3cccnc3)o2)cc1
 : 73	nt	nt	nt	nt	0%	nt	0.65	-0.4
- Cc1ccccc1C(=O)NC(=S)N(CCO)Cc1ccccc1
 : -10	i	6	12	2.8	0%	1.1	0.7	-1.5
- Cc1ccc(S(=O)(=O)N(CC(=O)Nc2cccc([N+](=O)[O-])c2)C(=O)N2CCN(C)CC2)cc1
 : nt	i	6	10	0.9	-4%	0.4	0.67	-2.5
- CC(C)OC(=O)CSc1nnc(-c2ccncc2)n1N
 : nt	nt	nt	nt	nt	-2%	nt	0.69	-0.8

Following part
Second line of a record: ALR H2O2 inh	FGF22 binding	Ecoli rRNA inh	Ecoli rRNA inh OD600	Ecoli rRNA inh RFP	Vif A3G	AF4-AF9 inh	E coli growth	HNF4A DNA FP
- CNC[C@@H]1Oc2c(NC(=O)C3CCOCC3)cccc2C(=O)N([C@@H](C)CO)C[C@@H]1C
 : nt	i	4	5	0.9	nt	-24	nt	nt
- O=c1c(-c2nnc(SCc3ccc(Cl)cc3)o2)cccn1Cc1ccccc1
 : 44	nt	nt	nt	nt	-6%	nt	0.72	3.6
- CC(C)NC(=O)N(C)C[C@H]1Oc2ccc(NS(=O)(=O)c3ccc(F)cc3)cc2CC(=O)N([C@@H](C)CO)C[C@@H]1C
 : nt	i	3	6	-0.3	nt	-1.3	nt	nt
- COc1ccc(C(N)c2csc(Nc3ccc(C(F)(F)F)cn3)n2)cc1 (stereo not drawn)
 : nt	i	-57	-80	-18	nt	6.6	nt	0.2
- COc1ccc(C#Cc2ccc3c(c2)O[C@H](CN(C)S(=O)(=O)c2ccccc2F)[C@H](C)CN([C@H](C)CO)S3(=O)=O)cc1
 : nt	i	8&17	18&12	2.5&-0.6	nt	-2.2&-2.4&-1.4	nt	9.6
- CC(C)(O)C#Cc1ccc([C@H]2[C@H](CO)N3CCCCN(S(C)(=O)=O)C[C@@H]23)cc1
 : nt	i	0	3	-2.8	nt	-4.6	nt	nt
- COc1ccc(NC(=O)Nc2ccc3c(c2)C(=O)N([C@H](C)CO)C[C@@H](C)[C@H](CN(C)C(=O)Nc2ccc(C(F)(F)F)cc2)OCCCC[C@@H](C)O3)cc1
 : nt	i	1	1	0.3	nt	-10	nt	nt
- Cc1ccc(S(=O)(=O)NCCC(=O)OCc2ccc([N+](=O)[O-])cc2)cc1C
 : -3	i	-9	-9	-1.8	4%	-1.3	0.69	2.0
- Cc1nc(Nc2nc(-c3ccccc3)cc(=O)[nH]2)nc2ccccc12
 : 32	nt	58	3	-8.5	nt	nt	0.69	13
- CCCCOc1ccc(/C=C(\C#N)C(=O)NC2CC2)cc1
 : -1	i	-8	-10	-0.1	nt	4.3	0.64	2.5
- CCC(=O)N1[C@@H](CO)[C@@H](c2ccccc2)C12CN(C(=O)c1ccncc1)C2
 : nt	i	-3	9	-0.1	nt	-4.0	nt	nt
- O=[N+]([O-])c1ccc(NS(=O)(=O)c2ccccc2)c(Cl)c1
 : nt	i	-56	-60	-10	0%	-0.9	0.62	1.0
- CC(C)C(OC(=O)CCCC(=O)Nc1nccs1)C(=O)NC1CCCCC1 (stereo not drawn)
 : -6	i	19	9	0.6	-8%	0.2	0.67	-0.4
- CCCCN(C(=O)C1CCCC1)c1c(N)n(Cc2ccccc2)c(=O)[nH]c1=O
 : -1	i	8	10	3.0	-2%	-9.1	0.65	-0.7
- COc1ccc(C(=O)N2CCCCC2C(=O)Nc2ccc(-n3nc(C)cc3C)cc2)o1 (stereo not drawn)
 : -2	i	-3	-25	25	nt	0.6	0.71	1.5
- CCC(C(=O)Oc1c(C(C)C)cccc1C(C)C)c1ccccc1 (stereo not drawn)
 : -12	i	-54	-76	-38	nt	-1.0	nt	0.5
- CN(Cc1cccc(Cl)c1Cl)C(=O)CCNC(=O)c1ccco1
 : 2	i	nt	nt	nt	14%	-2.7	0.74	-2.5
- CCCCCCSc1ccc(-c2nc3ccc(C)cn3c2NCc2ccccc2)cc1
 : -6	i	-17	-30	-4.1	nt	6.9&2.2	0.64	7.3&11
- COc1ccc(-c2[nH]c3ccccc3c2SCCNC(=O)c2cc3ccccc3oc2=O)cc1
 : -6	i	1	-6	4.4	5%	-0.2	0.76	5.6
- C[C@@H]1CCCCO[C@H](CN(C)C(=O)Nc2ccc(C(F)(F)F)cc2)[C@@H](C)CN([C@H](C)CO)C(=O)c2cc(NC(=O)NC3CCCCC3)ccc2O1
 : nt	i	7	-3	-0.3	nt	-4.3	nt	nt
- CO[C@H]1CN(C)C(=O)c2cc(NC(=O)Cc3ccccc3)ccc2OC[C@@H](C)N(C(C)=O)C[C@@H]1C
 : nt	i	2	-1	-1.0	nt	-11	nt	nt
- COc1ccccc1NC(=O)N1CCN(c2ncccn2)CC1
 : -3	nt	nt	nt	nt	-2%	nt	0.66	-1.3
- COc1ccc(C)cc1S(=O)(=O)N1CCCC(C(=O)NCC2CCCO2)C1 (stereo not drawn)
 : -4	nt	nt	nt	nt	0%	nt	0.7	-2.1
